Bead autofluor: flagged as autofluorescent in microsphere protease counterscreen; compound autofluorescence counterscreen, microsphere flow cytometry; hits give high values; 3.1% of 360,000 active; fluorescence intensity (test concentration not listed);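 active means at least 3 SD above the mean of all compounds, about 16000 in these data; inconclusive means too few beads counted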;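 further: 100 nL of 1 mM stock went into each well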
BJeLR lethal: kills HRASV12-expressing BJeLR cells; BJeLR (HRASV12) viability, CellTiter-Glo ATP luminescence, 48 h; reference of the scale not given here; inhibition, % (concentration not given with the values); 0.17% of 300,000 active;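 active means replicate mean above 50%; inconclusive means above 50% but judged a plate artefact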;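 further: 50 nL library stock added to about 25 µL; numbers are from one replicate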
Mtb hypoxia rep: Mtb hypoxia fluorescent reporter inhibition | 0.1% of 300,000 active | AID 1159583 | M. tuberculosis hypoxia-regulated fluorescent reporter, fluorescence | fluorescence inhibition, % (test concentration not listed);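 active means 35 to 45% if threefold the growth effect, above 45% if 1.5-fold the growth effect; inactive means the rest, general growth blockers included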;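 further: wells of about 50 µL received 100 nL stock; 0% = vehicle wells and 100% = reference inhibitor wells; whole bacteria with a GFP reporter of the hypoxia response; strong numbers were not always called active; many hits fall short of the cut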
ugtP null kill: kills S. aureus RN4220 lacking UgtP | S. aureus RN4220 ugtP deletion, OD600 growth, 16 h; some inactives read as strong as hits | growth inhibition, % (no concentration beside the values) | 0.54% of 330,000 active | AID 1259309;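 active means z-score under -3 and OD600 up to 0.15 on both plates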;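 further: plate controls were untreated wells for no effect and antibiotic for full effect; wells of about 80 µL received 100 nL stock; the first replicate is given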
PrP 5UTR inh: suppresses PrP 5' UTR mRNA reporter expression; 0.35% of 340,000 active; cell-based PrP 5' UTR mRNA reporter, plate reader; inhibition, % (test concentration not listed);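 active means every replicate at 50% or more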;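 further: 0 = median of the neutral control wells; tested in H4 reporter cells; numbers are from one replicate; inactives centre near -14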
Sa RN4220 lethal: kills Staphylococcus aureus RN4220. AID 1259311. 0.33% of 330,000 active. S. aureus RN4220 growth, OD600, 16 h. inhibition, % (test concentration not listed);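 active means z-score of -3 or lower and OD600 up to 0.18 on both plates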;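 further: plate controls were untreated cells for no effect and reference antibiotic for full effect; stock transfer was 100 nL into about 80 µL; one replicate is shown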
Mtb hypoxia rep growth: recorded beside Mtb hypoxia rep, whose call it bears; growth inhibition, %; measured here: M. tuberculosis growth (absorbance);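 0% = vehicle and 100% = reference antibiotic; read after six days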
Numbers without * were called inactive; ? = inconclusive; / = no result given.

SMILES | Bead autofluor | BJeLR lethal | Mtb hypoxia rep | Mtb hypoxia rep growth | ugtP null kill | PrP 5UTR inh | Sa RN4220 lethal
CCn1c(O)c(/C=N/N=C/c2ccc(OC)cc2)c2cc(C3=NNC(=O)CC3)ccc21 | 4204 | 12 | / | / | / | 9 | /
CN1C2CCC1CC(=NO)C2 | 4233 | 9 | / | / | 1 | -9 | 4.0
CN1CCN(S(=O)(=O)c2cccc3nsnc23)CC1 | 3284 | 8 | -1 | -7 | 3 | -32 | 0.2
COCCNC(=O)NC12CC3(C)CC(C)(CC(C)(C3)C1)C2 | 2641 | 6 | 11 | 8 | 2 | -25 | 8.0
c1ccc(COc2cccc(CN3CCN(c4ccccn4)CC3)c2)cc1 | 20483* | 3 | 10 | 4 | 11 | -39 | 0.5
Cc1cc(NC(=O)COC(=O)CCNS(=O)(=O)c2c(Cl)cccc2Cl)no1 | 4674 | 10 | 3 | -4 | 5 | -1 | 6.3
CC1=C(C(=O)OCc2ccccc2)C(c2cccc(Cl)c2Cl)NC(=O)N1CCCCCC(=O)O (configuration not stated) | 3786 | 2 | 7 | 4 | -4 | 0 | 12
Cc1ccc(S(=O)(=O)N2Cc3ccccc3CC2C(=O)Nc2ccc3c(c2)OCO3)cc1 (configuration not stated) | 2765 | -5 | / | / | 9 | -37 | 5.7
CCOC(=O)c1c(C)nc(C)c(C(=O)OCC)c1-c1cccc(N)c1 | 3831 | -15 | 1 | 6 | 4 | -12 | 3.5
Cc1occc1C(=O)Nc1ccc(OCc2ccccc2)cc1 | 3428 | 41 | 17 | 8 | 12 | -117 | 7.9
CC(=O)Nc1ccc(OS(=O)(=O)c2c(C)cc(C)cc2C)cc1 | 3712 | -11 | -1 | 2 | 6 | -11 | 7.3
Cc1ccc[n+](-c2nc3ccccc3nc2[N-]S(=O)(=O)c2ccccc2)c1 | 4549 | -15 | 10 | 0 | 2 | 2 | 4.8
Cc1cc(NC(=O)c2ccc3c(c2)OCCO3)ccc1NC(=O)c1cc2ccccc2o1 | 4293 | -1 | 0 | 0 | 10 | -29 | 8.1
CC(C)Cc1ccccc1S(N)(=O)=O | 3481 | -3 | 12 | 5 | 2 | -10 | 2.4
CCCCCCCCCn1c2c(c(=N)c3c1CCC3)CCC2 | 4301 | 39 | 24 | 36 | 101* | 8 | 100*
O=C(COC(=O)c1ccc(F)c(S(=O)(=O)N2CCOCC2)c1)NCc1ccc(Cl)cc1 | ? | / | 3 | -7 | 1 | 8 | 3.0
CCCCn1c(N)c(N(CC(C)C)C(=O)c2ccc(-c3ccc(C(C)=O)cc3)o2)c(=O)[nH]c1=O | 6399 | -11 | 2 | 14 | -5 | 3 | 3.4
Oc1ccccc1C1=NCCNC(C(F)(F)C(F)F)=C1 | 3472 | 3 | / | / | 7 | -16 | 1.8
N/C(CC(=O)Nc1cc(C(F)(F)F)ccc1Cl)=N\O | 3526 | -1 | / | / | / | -15 | /
Cc1ccc(C)c(OCC(=O)Nc2ccccc2C(=O)NC2CC2)c1 | 5527 | -2 | -9 | 0 | 7 | -14 | 2.7
CN(C)S(=O)(=O)c1ccc(NC(=O)CN2CCCC2c2ccc3c(c2)OCCCO3)cc1 (configuration not stated) | 2873 | / | -4 | -6 | 13 | -23 | 7.8
Cc1ccccc1NC(=O)CSc1nnc(CNC(=O)c2ccc3c(c2)OCO3)n1C | 5232 | -12 | -7 | 10 | 10 | -24 | 1.5
S=C(NCCCN1CCOCC1)N1CCOCC1 | 5990 | 8 | -4 | -2 | 0 | -5 | 1.5
COc1ccc(S(=O)(=O)N2CCCCCC2)cc1C(=O)NCCOc1ccc(C)cc1 | 6452 | 6 | / | / | / | -18 | /
CCCNC(=O)c1cccc(COCC(F)(F)C(F)F)c1 | 9313 | -13 | 11 | 3 | 11 | -2 | 1.0
SMILES | Bead autofluor | BJeLR lethal | Mtb hypoxia rep | Mtb hypoxia rep growth | ugtP null kill | PrP 5UTR inh | Sa RN4220 lethal
CC(C)CC(=O)Nc1nnc(SCC(=O)Nc2nccs2)s1 | 5384 | 5 | 4 | 10 | -5 | -18 | 5.7
CCCCC(=O)N/N=C/c1c(O)n(C2CC2)c(=S)[nH]c1=O | 8044 | 4 | 8 | 0 | 8 | -16 | 0.1
CN1C(=O)NC(c2cccc(F)c2)C2=C1CC(C)(C)CC2=O (configuration not stated) | 3898 | -10 | -2 | 1 | 5 | -19 | 3.6
CC1Oc2ccccc2N(CC(=O)N2CCCc3ccccc32)C1=O (configuration not stated) | 18633* | 7 | -6 | 3 | -3 | -14 | 2.7
CCN(c1ccccc1)S(=O)(=O)c1ccc(C(=O)NNC(=O)c2ccccc2F)cc1 | 8868 | / | -7 | -1 | 4 | -16 | 8.5
COc1ccc2c(CC(=O)Nc3ccc(N4CCOCC4)cc3)coc2c1 | 4219 | -10 | -2 | 9 | 17 | -18 | 3.2
COc1ccc(NC2CC(=O)N(C(C)C)C2=O)cc1 (configuration not stated) | 5823 | -2 | 2 | 14 | -6 | -67 | 4.5
CCOc1ccc(CC(=O)NN=Cc2cccnc2)cc1 | / | / | 0 | -6 | 4 | / | 1.1
CS(=O)(=O)NCCCNc1ccc(Cl)cc1[N+](=O)[O-] | 22714* | -8 | 19 | 6 | -10 | -6 | 2.0
CN(C)n1cccc1/C=C(\C#N)S(=O)(=O)c1ccc(Cl)cc1 | 6175 | 1 | 6 | 3 | 3 | -93 | 2.6
CCc1nnc(NC(=O)CSc2nnc(-c3ccc(OC)cc3)n2C)s1 | 3690 | 7 | -6 | 4 | -7 | -30 | -5.1
Cc1ccccc1OCC(=O)NN=Cc1ccccn1 | / | / | -6 | 11 | -3 | / | -0.9
CC(C(=O)Nc1ccccc1N1CCOCC1)N1C(=O)C2CC=CCC2C1=O (configuration not stated) | / | / | 3 | 0 | 1 | / | 7.9
CC1(C)CC(=O)C2=C(C1)N(CC1CCCO1)C(=O)NC2(C(F)(F)F)C(F)(F)F (configuration not stated) | 10741 | 5 | 10 | 9 | 2 | -29 | 2.2
CN(C)Cc1c(C(=O)NN=C/C=C/c2ccccc2)nnn1-c1nonc1N | / | / | -9 | 4 | -2 | / | -0.5
CC(O)[C@H]1CNCCN1CCc1cccc(F)c1 (some centres not stated) | 3734 | 9 | / | / | / | -7 | /
CCOc1ccccc1NC(=O)Cc1cccs1 | 3210 | 1 | 6 | 5 | 1 | -23 | 4.2
Cc1ccccc1C(=O)N1CCN(S(=O)(=O)c2ccccc2)CC1 | 6857 | 4 | 1 | -1 | 2 | 4 | -1.3
CCCc1cc(=O)oc2cc(OCC(=O)N3CCN(C(=O)C4COc5ccccc5O4)CC3)ccc12 (configuration not stated) | 6644 | 1 | 7 | -9 | 4 | -17 | -4.3
CC(C)[C@H](NC(=O)c1ccccc1)C(=O)OCC(=O)Nc1sccc1C(N)=O | 2809 | / | 16 | 6 | -2 | -36 | -1.2
Cc1sc2nc(C3CC3)nc(N3CCN(C(=O)c4ccccc4F)CC3)c2c1C | 4945 | -4 | -1 | 7 | 21 | -16 | 4.7
Cc1ccsc1CN(C(=O)c1ccc([N+](=O)[O-])cc1)C1CCS(=O)(=O)C1 (configuration not stated) | 5305 | 13 | 4 | -1 | 5 | -12 | 0.5
O=C(NCCc1ccccc1F)C1CCCN1S(=O)(=O)c1ccccc1 (configuration not stated) | 10569 | -5 | 7 | 12 | 7 | -20 | 2.1
CCCCCCCCNC(=O)c1cccnc1SCC(=O)Nc1ccc(OC)cc1OC | 2517 | -8 | 7 | -1 | -6 | -36 | 2.9
Cc1ccc(C(=O)CN(C(=O)c2ccc(Cl)c(Cl)c2)N2C(=O)C3C4C=CC(C4)C3C2=O)cc1 (configuration not stated) | 7733 | 0 | 3 | -5 | -9 | -10 | 4.7

Continued; the last 2 above are carried over.
SMILES | Bead autofluor | BJeLR lethal | Mtb hypoxia rep | Mtb hypoxia rep growth | ugtP null kill | PrP 5UTR inh | Sa RN4220 lethal
CCCCCCCCNC(=O)c1cccnc1SCC(=O)Nc1ccc(OC)cc1OC | 2517 | -8 | 7 | -1 | -6 | -36 | 2.9
Cc1ccc(C(=O)CN(C(=O)c2ccc(Cl)c(Cl)c2)N2C(=O)C3C4C=CC(C4)C3C2=O)cc1 (configuration not stated) | 7733 | 0 | 3 | -5 | -9 | -10 | 4.7
CCCCCc1n[nH]c2c1CCCC2 | 3770 | -6 | 1 | 4 | 12 | -13 | 0.9
O=S(=O)(Cc1ccccc1)CS(=O)(=O)Cc1ccccc1 | 2890 | / | 7 | 4 | -1 | 10 | 1.3
COCCS(=O)(=O)N(Cc1ccc(Br)cc1)[C@@H](C)C(=O)OC | 3525 | / | 0 | 7 | 3 | -7 | 0.7
Cc1ccc(OCCC(=O)Nc2ccc(S(=O)(=O)Nc3cc(C)nc(C)n3)cc2)cc1 | 5965 | -7 | -3 | -6 | 7 | -10 | -2.4
O=C(O)CCCC(=O)NNc1nc(-c2ccccc2)c2cc(Cl)ccc2n1 | 3872 | -8 | 6 | 7 | 8 | -30 | 2.0
CCOP(=O)(C#CC(C)(C)C)C1(O)CCCCC1 (configuration not stated) | 4312 | -9 | / | / | 2 | -21 | -2.9
CCOC(=O)COc1ccc(Br)cc1/C=C/c1[nH]c(=O)[nH]c(=O)c1[N+](=O)[O-] | 4313 | -35 | / | / | / | -29 | /
CC(C)OCCCN1C=C2C(=O)C(C)(OC(=O)CCc3ccccc3)C(=O)C=C2C=C1c1ccc(C#N)cc1 (configuration not stated) | / | 10 | 9 | 10 | 5 | / | -0.3
CCOc1ccc2[nH]c(=O)c(CN(Cc3ccco3)C(=O)c3cccc(F)c3)cc2c1 | 2306 | 5 | 2 | -1 | -9 | -6 | 6.4
CN1CCN(S(=O)(=O)c2ccc3c(c2)CC(=O)N3C)CC1 | ? | 2 | 2 | 5 | 2 | 4 | 2.8
O=C(Oc1ccccc1N1C(=O)C2CC=CCC2C1=O)c1ccc(Br)cc1 (configuration not stated) | 2189 | -12 | 9 | 8 | 13 | -33 | -0.7
Cc1ccc(/C=C/S(=O)(=O)NCC(=O)OCC(=O)Nc2c(F)cccc2F)cc1 | 5522 | -11 | 12 | -1 | 12 | -15 | 0.6
O=C(NCc1nc2ccccc2[nH]1)C1=C[C@H](C2CC2)C[C@H](OCCCCO)O1 | 2917 | -11 | / | / | / | -14 | /
NS(=O)(=O)c1ccc(CCNC(=O)CCS(=O)(=O)c2ccc(Br)cc2)cc1 | 3415 | 1 | 10 | 3 | 1 | -16 | 4.4
COc1ccc2[nH]c3c(=O)n(Cc4ccc(C(=O)N5CCCC5)cc4)c(=S)[nH]c3c2c1 | 3903 | -2 | 10 | 2 | 13 | -15 | 3.5
O=c1[nH]c(N/N=C/c2ccccc2Br)nnc1-c1ccccc1 | 2169 | -17 | / | / | / | -3 | /
CS(=O)Cc1cc(Oc2ccccc2)nc(-c2ccncc2)n1 (configuration not stated) | 2090 | 7 | 2 | 0 | -8 | -14 | -3.5
CCN(C(=O)COC(=O)c1cnc(C)cn1)c1c(N)n(Cc2ccccc2)c(=O)[nH]c1=O | 4982 | / | 9 | 4 | 4 | -14 | 8.9
Cc1nc(C(=O)NC2CCOCC2)sc1C1(C)CC(c2cccc([N+](=O)[O-])c2)=NO1 (configuration not stated) | 3828 | -1 | / | / | / | -11 | /
CCOC(=O)c1ccc(NC(=O)c2nc[nH]c2C(=O)N2CCN(c3ccccc3)CC2)cc1 | 3857 | -5 | -8 | 2 | -19 | -1 | 2.0
COc1ccc(N(CC(=O)Nc2ccc3c(c2)OCCO3)S(=O)(=O)c2cccc(C)c2)cc1 | 6154 | / | 7 | -7 | 8 | 13 | 4.4
Cc1cc(C)c(C#N)c(SCc2ccccc2F)n1 | 3960 | -3 | 3 | 5 | 2 | -13 | 1.8
O=C(c1ccccc1Oc1ccc([N+](=O)[O-])cc1)N1CCOCC1 | ? | -13 | 6 | -8 | 5 | -14 | 3.6
COc1cc(C=CC(=O)O)ccc1OCc1cnc(Cl)s1 | / | / | 1 | -2 | 6 | / | 6.9
Cc1nnsc1NC(=O)OCc1ccccc1Cl | / | 2 | 8 | 12 | -34 | -4 | 4.8

3 compounds picked at random from the list so far, as already listed:
SMILES | Bead autofluor | BJeLR lethal | Mtb hypoxia rep | Mtb hypoxia rep growth | ugtP null kill | PrP 5UTR inh | Sa RN4220 lethal
Cc1nc(C(=O)NC2CCOCC2)sc1C1(C)CC(c2cccc([N+](=O)[O-])c2)=NO1 (configuration not stated) | 3828 | -1 | / | / | / | -11 | /
O=C(O)CCCC(=O)NNc1nc(-c2ccccc2)c2cc(Cl)ccc2n1 | 3872 | -8 | 6 | 7 | 8 | -30 | 2.0
CCOC(=O)c1ccc(NC(=O)c2nc[nH]c2C(=O)N2CCN(c3ccccc3)CC2)cc1 | 3857 | -5 | -8 | 2 | -19 | -1 | 2.0

Screens deposited in PubChem by several laboratories.
